High-throughput results from PubChem BioAssay.
NPYLR7 agonist – agonists of mosquito NPYLR7 receptor, primary screen, cell-based, Aedes aegypti, calcium fluorescence, mosquito biting behavior; 270,000 tested, 0.15% active; activation, % at 10 µM; Aedes aegypti neuropeptide Y-like receptor 7 (NPYLR7); HEK293T NPYLR7/Galpha15, GCaMP6s calcium fluorescence; in the data active means activation above about 40%;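 further: 0% = vehicle and 100% = reference agonist at the receptor; some compounds past the cut are filed as inactive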
NPYLR7 agonist max-min – also measured in NPYLR7 agonist; calls as there; activation, %; measured here: Max-Min RFU normalised activation; some inactives read as strong as hits;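 span of the calcium signal over five minutes; 0% = vehicle and 100% = native peptide agonist; compound fluorescence can raise it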
Starred values were filed as active, the others as inactive; & = joins results of further samples. The list is partial; count on the stated rates, not on these rows.

Value order – NPYLR7 agonist max-min | NPYLR7 agonist
- Cn1c(=O)n(CCc2ccccc2)c(=O)c2c1nc1n2CCCN1c1ccccc1
    3.1 | 1.3
- Cc1ccc(C(c2c(O)cc(C)n(Cc3cccnc3)c2=O)N2CCN(c3ccccc3F)CC2)cc1 (stereo unspecified)
    2.2 | 12.5
- O=C(CNC(=O)c1ccc(=O)n(-c2ccc(F)cc2)n1)Nc1cn[nH]c1
    11.3 | 11.5
- COCCCNC(=O)CSc1nc(Cl)cc(N2CCN(C(=O)c3ccc(C(C)(C)C)cc3)C(C)C2)n1 (stereo unspecified)
    24.9 | 19.2
- CCOc1ccc(NC(C)C(=O)N(C)CCC#N)cc1F (stereo unspecified)
    -8.7 | -9.6
- COc1ccccc1N1CCN(c2nc(-c3ccco3)nc3ccccc23)CC1
    35.1 | 31.0
- CCC(=O)NC1(C(F)(F)F)C(=O)NC(C)=C1C(=O)OC (stereo unspecified)
    -3.8 | -3.9
- CCC(c1ccccc1)C1CCCN1CC(=O)NC1CCC2(CC1)OCCO2 (stereo unspecified)
    1.0 | 1.7
- NC(=O)C1CCN(C(=O)CCN(CCc2ccccc2)C(=O)c2cnccn2)CC1
    5.3 | 6.4
- O=C(NCc1ccco1)C1CCCN(c2nc(Cl)nc3nc[nH]c23)C1 (stereo unspecified)
    -0.8 | 1.2
- O=C(NCCCn1ccnc1)C(=O)NCC(c1cccnc1)N1CCN(c2ccccc2F)CC1 (stereo unspecified)
    0.9 | 1.4
- Cc1oncc1C(=O)NC(C)c1ccc(Cl)cc1 (stereo unspecified)
    5.1 | 12.7
- c1cnn(Cc2ccc(CN3CCC4(CCOCC4)CC3)cc2)c1
    0.4 | 0.2
- CC(=O)N1CCc2nc(C)nc(NCC[C@@H]3C[C@@H]4C=C[C@H]3C4)c2CC1
    3.4 | 4.8
- Cc1nn(S(=O)(=O)c2ccc3c(c2)CCCC3)c(C)c1S(=O)(=O)N1CCC(C)CC1
    -0.3 | 3.3
- COc1cc(/C=N\N=C/c2c[nH]c(=O)c(C#N)c2Nc2ccccc2)ccc1O
    1.8 | 2.0
- COc1ccc2c(c1)CN(CC=C(C)C)C(=O)CCN2C(C)=O
    7.6 | 1.6
- C=CCn1c(=O)c2c(nc3n2CC(C)CN3c2cccc(C)c2)n(C)c1=O (stereo unspecified)
    0.9 | 7.4
- CNC(=O)C1CCCN1C(=O)CNC(=O)/C=C(/C)c1cccc(F)c1 (stereo unspecified)
    5.2 | 5.4
- O=C(COCc1ccccc1)N1CCN(C(C(=O)N2CCOCC2)C2CCCC2)CC1 (stereo unspecified)
    1.9 | -2.3

Filtered by structure, the entries above with a Cl atom (three)
Value order – NPYLR7 agonist max-min | NPYLR7 agonist
- COCCCNC(=O)CSc1nc(Cl)cc(N2CCN(C(=O)c3ccc(C(C)(C)C)cc3)C(C)C2)n1 (stereo unspecified)
    24.9 | 19.2
- O=C(NCc1ccco1)C1CCCN(c2nc(Cl)nc3nc[nH]c23)C1 (stereo unspecified)
    -0.8 | 1.2
- Cc1oncc1C(=O)NC(C)c1ccc(Cl)cc1 (stereo unspecified)
    5.1 | 12.7

The list continues.
Value order – NPYLR7 agonist max-min | NPYLR7 agonist
- Cc1nnc(N2CCOCC2)[nH]c1=O
    4.9 | 10.5
- CCC(O)(CC)C(=O)NN(C(=O)CCc1ccccc1)c1ccccc1
    -18.1 | -14.6
- NC(=O)c1cnc2n1CCN(C(=O)C/C=C/c1ccccc1)C2
    11.7 | 11.8
- COCC(=O)Nc1ccc(N2CCN(C(=O)Nc3ccc(CC#N)cc3)CC2)nc1
    36.9 | 31.3
- CN(C)S(=O)(=O)NCC1CCCN(Cc2cc3ccccc3s2)C1 (stereo unspecified)
    -2.1&0.7 | 2.1&-2.6
- COCCN(Cc1ccc(C)cc1)Cc1c2ccccc2nn1C
    7.6 | 17.0
- Cc1ccc(S(=O)(=O)N2CCCC(C(F)(F)F)C2)cc1C(=O)O (stereo unspecified)
    2.7 | 11.2
- Cn1c(=NN=CC=Cc2ccccc2[N+](=O)[O-])sc2ccccc21
    -4.9 | 1.4
- Cc1ccc(NC(=O)N(CCN2CCCC2)CC(=O)N2CCc3sccc3C2COc2ccc(C(C)C)cc2)cc1 (stereo unspecified)
    0.3 | -0.5
- CCc1nc2c3cnn(-c4cc(Cl)ccc4C)c3ncn2n1
    0.1 | 0.6
- O=C(NCCNc1nc(-c2ccccc2)nc2cc(Cl)ccc12)c1cccc(F)c1
    19.5 | 4.8
- COc1ccc(C(CNC(=O)CCNC(=O)c2ccco2)N(C)C)cc1 (stereo unspecified)
    -0.5 | 3.9
- CC(C)CC(NC(=O)c1ccc2c(c1)CCN2S(C)(=O)=O)c1ccccc1 (stereo unspecified)
    5.9 | 1.8
- O=C(CCc1nc(-c2ccsc2)no1)NCCc1ccccc1
    16.8 | -4.8
- C[C@H]1[C@@H]2[C@@H](O)C([C@H](C)C(=O)N(C)Cc3cccnc3)CC[C@@]2(C)CC[C@@H]1NC(=O)c1ccc(C#N)cc1 (stereo partly specified)
    -15.9 | -9.6
- COc1cccc(-c2nc3ccccn3c2NC(=O)c2ccccc2)c1
    -9.9 | -16.7
- CC(Nc1ccc2c3c(cccc13)CC2)C(=O)Nc1ccnn1C(C)C (stereo unspecified)
    9.5 | 3.8
- CC1CN(C(=O)c2cc3ccsc3n2Cc2cccc(F)c2)CCN1C(=O)c1ccco1 (stereo unspecified)
    22.7 | 19.1
- CCn1c(CC2CCN(C(=O)c3cccc4c3OCC4)CC2)nn(C)c1=O
    0.0 | 0.3
- c1cc(CN2CCCC(N3CCOCC3)C2)sc1CN1CCCCC1 (stereo unspecified)
    4.7 | 4.5

Random excerpt: three records from the list.
Value order – NPYLR7 agonist max-min | NPYLR7 agonist
- Cc1ccc(S(=O)(=O)N2CCCC(C(F)(F)F)C2)cc1C(=O)O (stereo unspecified)
    2.7 | 11.2
- Cn1c(=NN=CC=Cc2ccccc2[N+](=O)[O-])sc2ccccc21
    -4.9 | 1.4
- CC(Nc1ccc2c3c(cccc13)CC2)C(=O)Nc1ccnn1C(C)C (stereo unspecified)
    9.5 | 3.8

Next part:
Value order – NPYLR7 agonist max-min | NPYLR7 agonist
- CC(=O)c1cccc(Nc2nc(-c3c(C)nc4cc(C)ccn34)cs2)c1
    -17.6 | -12.7
- CC1CCCCC1=NNC(=O)CC#N (stereo unspecified)
    11.4 | 13.2
- CCCCCc1ccc(C(=O)Nc2nnc(SCc3c(F)cccc3F)s2)cc1
    3.8 | 3.4
- CCOC(=O)c1c(NC(=O)Cn2nc(C(F)(F)F)cc2C)sc2c1CCC(C)C2 (stereo unspecified)
    -4.5 | -0.3
- CC1CN(c2ccc(S(=O)(=O)C(F)(F)F)cc2[N+](=O)[O-])CC(C)O1 (stereo unspecified)
    8.4 | 10.9
- Clc1ccc(C=NOCc2nnc(-c3ccccc3Br)o2)cc1Cl
    5.9 | 0.1
- Cc1ccc(C(=O)OC(C)CN2CCN(C)CC2)cc1 (stereo unspecified)
    -2.5 | -1.4
- COc1cc2c(cc1OC)C(=O)CN(S(=O)(=O)c1ccc(C)cc1)CC2
    2.2 | 8.0
- O=C(CCCCCCCCC(=O)N=Nc1c(O)[nH]c2ccccc12)N=Nc1c(O)[nH]c2ccccc12
    -3.0 | 0.1
- O=C(NCc1ccccc1OC(F)(F)F)c1ccc(NC(=O)C2CC2)s1
    -4.7 | -0.2
- COCCN1CCN(C(=O)C2CCCCCC2)CC1C (stereo unspecified)
    5.4 | 7.1
- CCOc1ccc(N2C(=O)CC(NCC(=O)OC)C2=O)cc1 (stereo unspecified)
    -1.5 | 1.6
- CN(CCO)c1ccc2c3c(cccc13)C(=O)N(c1ccc(Cl)cc1)C2=O
    20.7 | 30.2
- COc1ccc(-c2ccc(C(=O)N3CCCC(c4ccccc4)CC3)cn2)cc1 (stereo unspecified)
    2.7 | 4.3
- Cc1cccc(-c2nnc(NC(=O)C3CCCN3C(=O)Nc3ccc(C(C)C)cc3)s2)c1 (stereo unspecified)
    29.5 | 28.0
- COCCOCCCCNc1cnc2cc(F)c(F)cc2n1
    -1.8 | -1.2
- COC(=O)c1sc2nc(C)n(CC(=O)NC(C)(C)C)c(=O)c2c1C
    -3.8 | -4.0
- Cc1cccc(N=c2oc3ccc(Br)cc3cc2-c2nc3ccccc3[nH]2)c1
    12.7 | 3.2
- CN1CCC(N(C)Cc2cn[nH]c2-c2ccc(F)cc2)C1 (stereo unspecified)
    -2.9 | 2.3
- COc1ccc(NC(=O)CCC2CCCN(C(=O)c3ccoc3C)C2)cc1Cl (stereo unspecified)
    -7.0 | -3.6
- CC(C)(C)c1cn2nc(NCCc3ccc4c(c3)OCCO4)sc2n1
    -4.2 | -1.9
- C=C(C)Cn1c(SCC(=O)N/N=C\c2cccc([N+](=O)[O-])c2)nnc1-c1ccc(Br)cc1
    7.7 | -5.5
- NC(=O)c1ccn(-c2ccccc2NC(=O)C2Cc3ccccc3O2)n1 (stereo unspecified)
    -10.2 | -11.1
- CCS(=O)(=O)NC1CCCN(c2ncnc3c2CN(C)CC3)C1 (stereo unspecified)
    4.9 | 9.3
- COCCOC(=NC(=O)c1ccc2c(c1)OCO2)N(C)C1CCN(C)CC1
    16.0 | 20.3
- CCn1c2ccccc2c2nn(C)c(=N)nc21
    16.6 | 15.7
- COCCN(CC(=O)Nc1cc(-c2ccccc2)nn1-c1ccc(C)cc1)S(=O)(=O)c1ccc(C)cc1
    13.2 | 10.0
- C=CCNC(=O)CN1CCN(c2cc(NCC3CC3)ncn2)CC1
    5.8 | 6.3
- COc1ccc(NC(=O)CSc2nc3ccccc3s2)c([N+](=O)[O-])c1
    -14.0 | -7.4
- Cc1cc2cc(CCNC(=O)Cc3cccc4ccccc34)c(=O)[nH]c2cc1C
    10.7 | -0.3
- Cc1cc(-n2cnnc2COc2ccccc2Cl)n(C)n1
    9.3 | 12.3
- CC(CC(C)(C)c1ccccc1)NC(=O)Cn1cc2ccccc2n1 (stereo unspecified)
    -5.1 | -1.5
- CCCN(CC(=O)N(CCOC)Cc1cccn1C)C(=O)Nc1ccccc1C(F)(F)F
    18.3 | 14.0
- CN(Cc1ccncc1)c1ncccc1S(N)(=O)=O
    -5.2 | -3.3
- CN(Cc1ccccc1)CC(O)Cn1nnnc1-c1ccccn1 (stereo unspecified)
    0.0 | 0.9
- CC(C)c1ccc(C2C3CN(C(C)C)CC=C3C(C#N)C(=N)C2(C#N)C#N)cc1 (stereo unspecified)
    8.0 | 10.1
- CCC(=O)NNC(=O)CSc1ccc2ccccc2n1
    -9.9 | -2.9
- Cc1cnc(-c2ccc(-c3cc(NCCO)nc4[nH]ccc34)cc2)nc1
    3.2 | 5.7
- Cc1c(CN(C)C(=O)CCn2c(C)cc3ccccc32)cnn1C
    6.2 | 14.9
- COc1ccc(CNc2nccc(N3CCC(O)CC3)n2)c(OC)c1
    0.4 | 3.3
- CC(C)(O)c1cn(C2CCN(C(=O)CCc3ccncc3)CC2)nn1
    4.1 | 7.4
- CC1(Cc2cc(Cl)ccc2C(F)(F)F)C(=O)Nc2ccc(-c3ccsc3)cc21 (stereo unspecified)
    4.0 | -2.3
- CCN(CC)CCOc1ccc(C(=O)NC2(C)CCS(=O)(=O)C2)cc1 (stereo unspecified)
    -4.4 | -5.1
- O=C(O)CNc1cccc(C(=O)N2CCCN(c3ncccn3)CC2)c1
    -4.6 | 0.0
- O=C(c1ccc(CSc2nnc(-c3ccccc3Cl)n2Cc2ccccc2)cc1)N1CCOCC1
    20.3 | 20.8
- O=C(C1CCC1)N1C2CCC(O)(CC2)C1CO (stereo unspecified)
    11.5 | 1.5
- CC1=CC[C@@H]2CN(C(=O)Cn3cc(C(F)(F)F)ccc3=O)C[C@@H]2C1
    4.7 | 5.6
- O=C(NCc1ccc2c(c1)OCO2)c1cc(-c2ccccc2Cl)nc2ccccc12
    3.0 | 1.5
- CC(C)Oc1ccc(C2=NC(=Cc3ccc(OCC(N)=O)cc3)C(=O)O2)cc1
    5.5 | -1.6
- CN(Cc1ccccc1)C(=O)C1(C)CCN1C(=O)C1(c2ccc(Cl)cc2)CC1 (stereo unspecified)
    1.8 | 2.2
- Cc1cc(CC(=O)N2CCCC(OCc3ccccn3)C2)on1 (stereo unspecified)
    1.0 | 3.3
- Fc1ccc(C2=Nc3ncnn3C(c3ccc(F)cc3)C2)cc1 (stereo unspecified)
    3.9 | 5.7
- COc1ccc(Cl)c2sc(N3CCN(C(=O)CS(=O)(=O)c4ccccc4)CC3)nc12
    7.2 | 11.5
- COc1ccc(-c2ccccc2-c2nnc(C)s2)cn1
    -5.9 | 4.7
- Cc1ccccc1CO[C@]1(C(=O)NN2CCOCC2)CC(OCc2cccc(Cl)c2)[C@@H]2OC(C)(C)O[C@@H]2C1 (stereo partly specified)
    11.0 | 12.5
- CCS(=O)(=O)Oc1cccc(CN(CCOC)C(=O)c2cccc(F)c2)c1
    9.6 | -2.7
- CCCCCSc1nc2c(c(=O)n(C)c(=O)n2C)n1Cc1ccccc1
    -5.6 | -2.5
- O=C(COc1cccc(F)c1)Nc1c(F)c(F)c(F)c(F)c1F
    -8.1 | -8.5
- CN1C[C@H](Nc2nc(C(C)(C)C)nc3c2cnn3C)C[C@H]1CO
    6.0 | -1.3
- O=C(CC1c2ccccc2CCc2ccccc21)NC1CCOC1=O (stereo unspecified)
    11.0 | 24.6

Continuation.
Value order – NPYLR7 agonist max-min | NPYLR7 agonist
- CN(C)Cc1c(C(=O)NCCOc2ccc(C(=O)NO)cc2)oc2ccccc12
    -11.1 | -4.6
- CC(=O)N1CCC(NC(=O)c2cn(-c3ccc(F)cc3)nn2)CC1
    1.6 | 3.2
- COC(=O)c1ccc(F)c(NS(=O)(=O)c2ccc(Cl)c(C(F)(F)F)c2)c1
    14.8 | 12.4
- COC(=O)N=C(c1ccc(C)c(F)c1)C(Cl)Cl
    -24.4 | -26.3

Two of the compounds above, comma-delimited:
molecule,NPYLR7 agonist max-min,NPYLR7 agonist
COC(=O)c1ccc(F)c(NS(=O)(=O)c2ccc(Cl)c(C(F)(F)F)c2)c1,14.8,12.4
COC(=O)N=C(c1ccc(C)c(F)c1)C(Cl)Cl,-24.4,-26.3
